HNF4A DNA FP: change in binding of human HNF4 alpha to DNA. HNF4a-FITC DNA binding, fluorescence polarization, 1 h. activity change, % at 10 µM. actives 0.3% (n = 360,000). AID 1224865; in the data active = activity change above about 30%, passing the limit was not always enough;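 also: controls were the assay level and a saturating level of protein; the project sought stronger binding though the title names inhibitors; some compounds called inactive have numbers as strong as hits; positive values seem to mean higher polarization but the record does not say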
LANA-H2B inh: blocks KSHV LANA binding to histone H2A/H2B | Q9QR71 | cell-free LANA-H2A/H2B peptide, fluorescence polarization | inhibition, % (concentration not given with the values) | actives 0.6% (n = 320,000) | AID 2629; in the data active = inhibition mostly above about 10%, no sharp cut-off; inactive = mostly below about 6.7%;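 also: stock transfer was 7.5 nL into about 10 µL; 0% = median of vehicle wells and 100% = median of positive control wells; one replicate is shown; the record names a cut of 25% in any replicate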
FGF22 binding: binders of recombinant human FGF22 by thermal shift; AID 651658; SYPRO orange fluorescence; percent of sucrose octasulfate shift, DMSO zero; actives 1.5% (n = 340,000); Q9HCT0; calls only at 9.99 µM;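 active = melting point raised past a set limit in the mean and every replicate; inconclusive = no clear call; three in four hits are not shown here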
Target sequence (Q9HCT0 whole entry, looked up): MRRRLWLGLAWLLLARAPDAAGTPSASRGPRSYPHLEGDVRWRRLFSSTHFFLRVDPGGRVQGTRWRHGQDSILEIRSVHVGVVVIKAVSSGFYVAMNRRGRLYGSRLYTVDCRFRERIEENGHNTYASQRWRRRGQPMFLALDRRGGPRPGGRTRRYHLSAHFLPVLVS
Ecoli growth: E. coli growth inhibition | Escherichia coli growth, OD600, 23 h; stronger effect = lower value | OD600 absorbance (concentration not given with the values) | actives 0.21% (n = 330,000) | AID 1053175;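 active = OD600 absorbance below the run mean of sample wells minus 3.6 SD, in any replicate, cut at about 0.56 in these data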;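 also: stock transfer was 300 nL into about 60 µL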
Beta2AR agonist: human beta-2 adrenergic receptor agonism by FAP; P07550; Am2.2-beta2AR cells, FAP receptor internalization, flow cytometry; reference of the scale not given here; response, % (test concentration not listed); actives 0.43% (n = 340,000); AID 504454;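 active = response above a set limit, near 3 SD of response in nonfluorescent compounds, cut at about 42% in these data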;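 also: stock transfer was 100 nL into about 11 µL; a reference agonist was the positive control; negative values mostly stem from fluorescent compounds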
Target sequence (P07550 whole entry, looked up): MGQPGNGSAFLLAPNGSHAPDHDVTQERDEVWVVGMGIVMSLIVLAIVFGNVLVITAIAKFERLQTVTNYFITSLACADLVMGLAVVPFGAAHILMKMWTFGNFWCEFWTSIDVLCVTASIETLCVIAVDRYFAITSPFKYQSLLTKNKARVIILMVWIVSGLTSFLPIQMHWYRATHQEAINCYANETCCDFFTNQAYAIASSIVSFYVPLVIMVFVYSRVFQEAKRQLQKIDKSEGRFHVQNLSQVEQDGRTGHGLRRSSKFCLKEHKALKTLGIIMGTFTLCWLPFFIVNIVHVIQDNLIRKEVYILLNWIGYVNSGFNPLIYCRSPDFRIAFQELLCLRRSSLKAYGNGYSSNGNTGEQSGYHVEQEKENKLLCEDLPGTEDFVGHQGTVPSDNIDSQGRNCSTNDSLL
ALR inh: human ALR oxidase inhibition via reduced H2O2; purified ALR, DTT oxidation, H2O2 HRP-luminol luminescence; inhibition, % (test concentration not listed); actives 3.8% (n = 290,000); AID 485317;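 active = mean and each replicate at 75% or more; inconclusive = only one of the two met; inactive = neither met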;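 also: stock transfer was 7.5 nL into about 7.5 µL; 0% = neutral wells and 100% = wells with inactivated enzyme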
UCH37 DUB inh: inhibitors of human deubiquitinating enzyme UCH37. Q9Y5K5. purified proteasome/UCH37, Ub-AMC cleavage fluorescence. inhibition, % (concentration not given with the values). actives 0.33% (n = 330,000). AID 588478;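 active = mean of two replicates above 20%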;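 also: 0% = compound-free wells with enzyme and 100% = wells lacking proteasome; stock transfer was 100 nL into about 20 µL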
Target sequence (Q9Y5K5 whole entry, looked up): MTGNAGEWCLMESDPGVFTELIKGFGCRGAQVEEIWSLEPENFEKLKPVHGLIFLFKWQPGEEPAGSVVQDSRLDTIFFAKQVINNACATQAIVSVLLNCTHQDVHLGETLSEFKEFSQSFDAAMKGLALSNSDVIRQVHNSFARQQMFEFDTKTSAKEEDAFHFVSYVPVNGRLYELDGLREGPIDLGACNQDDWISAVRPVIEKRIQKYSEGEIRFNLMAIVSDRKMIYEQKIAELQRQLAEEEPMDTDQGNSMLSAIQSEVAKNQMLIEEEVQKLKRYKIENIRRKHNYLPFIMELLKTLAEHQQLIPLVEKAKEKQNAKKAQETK
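Material: human UCH37 enzyme supplied as purified proteasome complex / Amount: 0.15 nM proteasome as dispensed / Buffer or medium: pH 7.4 Tris-HCl (50 mM) with ovalbumin, ATP-MgCl2, DTT / Times: preincubation 30 min, reaction 25 min, room temperature / Technique: AMC fluorescence from Ub-AMC cleavage, excitation 355 nm, emission 460 nm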
* hit, by the source's call; i = inactive; ? = inconclusive; / = no result given. The list is partial; rates above refer to the full screens.

SMILES	HNF4A DNA FP	LANA-H2B inh	FGF22 binding	Ecoli growth	Beta2AR agonist	ALR inh	UCH37 DUB inh
CCc1ccc(Nc2cnn(-c3nc4ccccc4s3)c(=O)c2Cl)cc1	0.2	0.6	i	0.72	-9	2	3.1
O=C(NC1CCCC(C(F)(F)F)C1)c1ccc([N+](=O)[O-])o1 (centres undefined)	-4.3	-0.1	i	0.67	11	-100	5.8
Cc1c(CC(=O)NCC(=O)NCC(=O)O)c(=O)oc2cc3oc4c(c3cc12)CCCC4	0.3	-4.7	i	0.71	-10	-2	-83
O=C(/C=N/O)NCCN1CCCCC1	3.5	5.8	i	/	-3	-6	/
Cc1ccc(C(=O)NCC(=O)OCC(=O)c2ccccc2)s1	1.5	-9.5	i	0.68	0	4	1.8
O=C(NCc1cccnc1)c1ccc(S(=O)(=O)N2CCCCC2)cc1	5.0	6.3	/	0.71	0	-7	5.3
COc1cccc(C(=O)OCC(=O)N2CCc3ccccc3C2)c1	2.1	-1.1	i	0.65	3	/	4.4
Cc1cccc(OCCCC(=O)Nc2ccc(N3CCCCC3)cc2)c1C	1.8	1.5	/	0.68	2	-4	2.8
CCc1ccc2c(c1)cc(CN(C(=S)Nc1cccc(C)c1)C1CC1)c1nnnn12	-2.9	-3.7	i	0.69	8	0	3.1
Cc1ccc(S(=O)(=O)Nc2ccc(NC(=O)c3cccnc3)cc2)cc1	-2.9	0.7	i	0.71	7	3	-0.3
COc1ccccc1OCC(=O)Nc1c2c(nn1-c1ccc(F)cc1)CS(=O)(=O)C2	-1.7	-1.2	i	0.73	-1	-14	-1.3
COc1ccc(N(CC(=O)Nc2ccc3c(c2)OCO3)S(=O)(=O)c2ccc(C)cc2)cc1OC	-3.6	0.8	i	0.7	-8	-4	-0.7
CN(C(=O)COc1cccc(Br)c1)C1CCS(=O)(=O)C1 (centres undefined)	1.6	2.7	/	0.69	1	4	4.7
COc1ccc(Cl)cc1CSc1ncn[nH]1	-2.6	-5.4	i	0.67	-3	3	3.5
COc1ccccc1NC(=O)c1cc(C(=O)Nc2ccccc2OC)cc([N+](=O)[O-])c1	-4.0	1.6	i	0.65	2	-3	4.7
Cc1ccc(CN2CCN(CC(=O)O)C2=O)cc1	1.7	-0.8	/	0.71	-4	/	0.4
CC(CCc1ccccc1)NC(=O)Cn1cccc1C(=O)c1ccccc1 (centres undefined)	-1.1	1.2	i	0.72	-2	0	2.0
CCOC(=O)c1cnc(SCC(=O)c2ccc(Cl)cc2)nc1N	-3.0	4.2	/	0.79	-1	-5	2.3
COc1cccc(/C=N/Nc2ccc(Cl)nn2)c1	0.0	1.3	i	/	-5	14	/
CS(=O)(=O)Nc1cccc(C2=NN(C(=O)c3cccc([N+](=O)[O-])c3)C(c3cccs3)C2)c1 (centres undefined)	-1.0	0.6	i	0.69	18	-4	2.6

15 structures from above, sorted by heavy-atom count, largest number first.
SMILES	HNF4A DNA FP	LANA-H2B inh	FGF22 binding	Ecoli growth	Beta2AR agonist	ALR inh	UCH37 DUB inh
COc1ccc(N(CC(=O)Nc2ccc3c(c2)OCO3)S(=O)(=O)c2ccc(C)cc2)cc1OC	-3.6	0.8	i	0.7	-8	-4	-0.7
CS(=O)(=O)Nc1cccc(C2=NN(C(=O)c3cccc([N+](=O)[O-])c3)C(c3cccs3)C2)c1 (centres undefined)	-1.0	0.6	i	0.69	18	-4	2.6
COc1ccccc1NC(=O)c1cc(C(=O)Nc2ccccc2OC)cc([N+](=O)[O-])c1	-4.0	1.6	i	0.65	2	-3	4.7
COc1ccccc1OCC(=O)Nc1c2c(nn1-c1ccc(F)cc1)CS(=O)(=O)C2	-1.7	-1.2	i	0.73	-1	-14	-1.3
CC(CCc1ccccc1)NC(=O)Cn1cccc1C(=O)c1ccccc1 (centres undefined)	-1.1	1.2	i	0.72	-2	0	2.0
Cc1ccc(S(=O)(=O)Nc2ccc(NC(=O)c3cccnc3)cc2)cc1	-2.9	0.7	i	0.71	7	3	-0.3
O=C(NCc1cccnc1)c1ccc(S(=O)(=O)N2CCCCC2)cc1	5.0	6.3	/	0.71	0	-7	5.3
COc1cccc(C(=O)OCC(=O)N2CCc3ccccc3C2)c1	2.1	-1.1	i	0.65	3	/	4.4
CCOC(=O)c1cnc(SCC(=O)c2ccc(Cl)cc2)nc1N	-3.0	4.2	/	0.79	-1	-5	2.3
Cc1ccc(C(=O)NCC(=O)OCC(=O)c2ccccc2)s1	1.5	-9.5	i	0.68	0	4	1.8
O=C(NC1CCCC(C(F)(F)F)C1)c1ccc([N+](=O)[O-])o1 (centres undefined)	-4.3	-0.1	i	0.67	11	-100	5.8
CN(C(=O)COc1cccc(Br)c1)C1CCS(=O)(=O)C1 (centres undefined)	1.6	2.7	/	0.69	1	4	4.7
Cc1ccc(CN2CCN(CC(=O)O)C2=O)cc1	1.7	-0.8	/	0.71	-4	/	0.4
COc1ccc(Cl)cc1CSc1ncn[nH]1	-2.6	-5.4	i	0.67	-3	3	3.5
O=C(/C=N/O)NCCN1CCCCC1	3.5	5.8	i	/	-3	-6	/

The listing continues:
SMILES	HNF4A DNA FP	LANA-H2B inh	FGF22 binding	Ecoli growth	Beta2AR agonist	ALR inh	UCH37 DUB inh
CCc1cc2c(=O)c(-c3nc4ccccc4n3C)c(C)oc2c(CN2CCOCC2)c1O	0.5	3.7	i	0.68	-6	3	-87
Cn1c(N2CCOCC2)cc(=O)n(C)c1=O	-0.1	0.6	i	0.69	2	/	-0.2
CC(C)Oc1ccc(Cc2cnc(=S)[nH]c2N)cc1	1.8	-1.1	i	0.73	-3	1	1.7
CCOc1ccccc1N1CCN(c2ncnc3scc(-c4ccc(OC)cc4)c23)CC1	4.5	-2.1	i	0.76	20	21	1.6
O=S(=O)(NCc1ccco1)c1ccccc1Br	3.4	0.1	i	0.67	-4	3	4.0
Cc1ccc(CNC(=O)c2cccc3c2C(=O)c2ccc(N4CCC(C)CC4)cc2S3(=O)=O)cc1	46*	-6.9	i	0.69	-8	4	0.9
Cc1cc(C)c(C)c(S(=O)(=O)ON2C(=O)c3ccccc3C2=O)c1C	-3.7	-3.8	i	0.64	33	-3	2.5
Cc1sc(NC(=O)Cn2[nH]c(=O)c3ccccc3c2=O)nc1-c1ccccc1	4.7	0.7	/	0.68	3	?	-4.7
O=C(Nc1ncccn1)C1CCCN1S(=O)(=O)c1ccc(Cl)c(Cl)c1 (centres undefined)	5.0	0.7	i	0.68	0	0	2.6
FC(F)(F)c1cccc(NC(=S)N(CCCN2CCCC2)Cc2cccn2Cc2ccc(Cl)cc2)c1	4.2	-5.4	i	0.72	20	-4	1.9
CN(C(=O)C1CCCO1)C1CCS(=O)(=O)C1 (centres undefined)	3.7	-6.8	i	0.63	2	-8	3.9
O=C(Nc1ccc(Cl)cc1)Nc1ccc(N2CCC(C(F)(F)F)CC2)nc1	-55	3.7	i	0.71	4	/	-6.0
Cc1[nH]c2ccccc2c1CN1CCC(CO)(Cc2ccccc2)CC1	-3.0	3.6	/	0.68	4	-30	3.9
Cc1ccccc1-n1nc2c(c1NC(=O)c1cccs1)CS(=O)(=O)C2	-3.6	4.1	i	0.71	-6	-16	2.4
COc1ccc(CSCC(=O)N/N=C/c2ccccc2O)cc1	0.1	3.5	i	/	-2	1	/
c1ccc(NCc2nc(-c3ccccc3)no2)cc1	2.5	-2.0	/	0.69	-4	7	6.3
COc1cc(/C=C2\CC/C(=C\c3ccc(OCCO)c(OC)c3)C2=O)ccc1OCCO	12	-15	i	0.72	-336	-56	5.3
C=CCNC(=O)C1CC(=O)N(c2ccc(C)cc2)C1 (centres undefined)	-4.1	1.6	/	0.71	0	/	1.1
C=CCNC(=O)C1CC(=O)N(c2ccc(OCC(=O)Nc3ccccc3)cc2)C1 (centres undefined)	1.9	0.5	/	0.68	8	-4	-2.1
CCCCOC(=O)c1ccc(NC(=O)c2c(OC)cccc2OC)cc1	-0.7	-4.4	i	0.63	7	-4	4.9
COc1ccc(C(C(=O)NC2CCCCC2)N(CC2CCCO2)C(=O)C2COc3ccccc3O2)cc1OC (centres undefined)	-2.4	2.4	/	0.75	-10	/	4.7
Cn1c(NNC(=O)CCC2CCCCC2)cc(=O)n(C)c1=O	-0.4	2.5	i	0.79	6	-2	2.7
CCC(=O)Nc1ccc2oc(-c3cccnc3)nc2c1	-1.1	-7.1	i	0.66	-9	-10	-128
O=S(=O)(Nc1c(O)ccc2ccccc12)c1ccc(F)cc1	20	-1.4	i	0.69	-1	?	0.4
CCOCCCNC(=O)C1CCCN1S(=O)(=O)c1ccc(Cl)cc1 (centres undefined)	2.7	0.4	/	0.7	2	-2	3.4
COc1cc(/C=C(\NC(C)=O)C(=O)N2CCCCC2)ccc1OC(C)=O	1.2	1.3	i	0.68	3	-4	-0.1
O=C1c2ccccc2C(=O)N1CC(=O)N1c2ccccc2Sc2ccccc21	0.9	0.9	i	0.67	-3	4	3.3
O=C1[C@H](Cc2ccccc2)NCC=CC[C@H](c2ccco2)N1Cc1ccccc1	-0.3	/	i	/	-2	/	2.8
CCc1ccc(NC(=O)C(NS(=O)(=O)c2ccc3c(c2)CCN3C(C)=O)C(C)C)cc1 (centres undefined)	-1.5	11	i	0.69	6	-6	1.1
O=C(Nc1ccc(F)cc1)N1CCN(C(=O)C2CCCO2)CC1 (centres undefined)	-3.7	-4.1	i	0.74	1	0	5.3
Clc1ccccc1N1CCN(Cc2ccco2)CC1	-8.9	1.2	i	0.67	5	0	-1.8
O=C(CSc1nc(-c2ccc(F)cc2)nc2ccc(F)cc12)Nc1cccc(C(=O)O)c1	0.8	0.0	i	0.7	1	-5	4.5
COc1ccc(NC(=O)C2CCCN(S(=O)(=O)c3cccs3)C2)cc1OC (centres undefined)	-1.0	1.4	/	0.68	9	-18	-0.1
COc1ccc(NS(=O)(=O)c2ccc3nc(COc4cccc5ccccc45)[nH]c3c2)cc1	0.2	-1.6	/	0.7	11	-9	1.1
O=C(O)c1oc2ccccc2c1CN1CCN(c2ccccc2)CC1	-2.3	-1.3	/	0.67	-6	0	3.5
COc1cccc(C(=O)NN2C(=S)N(c3ccccc3)C(=O)C2CC(N)=O)c1 (centres undefined)	-3.4	4.6	i	0.68	9	/	3.9
Cc1c(C(=O)N2CCN(S(=O)(=O)c3ccccc3)CC2)oc2ccc(Br)cc12	-3.3	/	i	0.68	-1	/	3.2
CCC(C)NC(=O)CN1C(=O)NC2NC(=O)NC21 (centres undefined)	3.8	-0.9	i	0.69	-6	/	0.4
CC(C)CNC(=O)COc1ccc(Sc2ccc(OCC(=O)NCC(C)C)cc2)cc1	-3.7	-4.2	/	0.69	-2	-11	-2.2
Cc1ccccc1NC(=S)N(CCN(C)C)C(C)c1ccco1 (centres undefined)	2.5	-3.8	i	0.71	12	-3	6.1
Cc1nc(-c2ccc(Cl)cc2)sc1C1(C)CC(c2ccccc2Br)=NO1 (centres undefined)	3.7	-1.4	i	0.67	-4	-10	0.1
O=C(CCN1C(=O)/C(=C\c2cccs2)SC1=S)NC1=NCCS1	4.9	1.2	i	/	-8	-21	/

Assay outcomes deposited in PubChem BioAssay by several laboratories.
